Ecoli rRNA inh – selective bacterial rRNA inhibition in E. coli. E. coli WT GFP vs humanized-ribosome RFP mutants, fluorescence, 24 h; stronger effect = lower value; DMSO median 0, no signal -100. GFP signal change (wild-type ribosome), % (concentration not given with the values). hit rate 1.6% among 350,000;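 active means significant combined selectivity score with lowered wild-type GFP, culture density cut under 30%, mutant RFP and density less affected; inactive means any of these conditions unmet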; further: one replicate is shown; some compounds called inactive have numbers as strong as hits
Beta cell apopt – beta cell apoptosis inhibition; INS-1E cytokine-induced death, ATP luminescence, 48 h; percent of positive-control rescue, neutral wells zero; protection from apoptosis, % (concentration not given with the values); hit rate 0.8% among 300,000;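 active means all replicates at 75% or more, or half of them and the mean; inconclusive means half reach 75% but not the mean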;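 further: 0% = cytokine-treated negative control wells and 100% = positive control rescue; higher means more ATP so stronger rescue from cytokine killing; wells of about 40 µL received 100 nL stock; the first replicate is given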
Calb FLC – C. albicans growth modulation with fluconazole | C. albicans CaCi-2 (fluconazole-resistant clinical isolate) + fluconazole, Alamar Blue growth, 48 h | growth inhibition, % (no concentration beside the values) | hit rate 0.57% among 300,000 | AID 1979;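 active means most replicates above 75%; inconclusive means exactly half above 75%; inactive means most below 75%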;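 further: all wells also contain fluconazole at 8 µg/ml as a sub-toxic cotreatment; 0% = median of DMSO wells and 100% = median of geldanamycin control wells; wells of about 8 µL received 7.5 nL stock; the first replicate is given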
Vif A3G – inhibitors of Vif binding to APOBEC3G peptide, primary screen, biochemical, TR-FRET, GST-Vif 1-94, biotin-A3G peptide, dose response retest (AID 1117319); TR-FRET GST-Vif / biotin-A3G peptide binding; higher % means a stronger effect; test concentration not given here; strong numbers were not always called active; one-dose inhibition, %; IC50 in µM for titrated hits; hit rate 0.57% among 260,000;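 active means above the screen mean plus three standard deviations and confirmed in dose response; inconclusive means results disagree or hit not tested in dose response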;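 further: Vif residues 1-94 fused to GST binding biotinylated APOBEC3G peptide 110-148; 0% = full assay without inhibitor and 100% = GST in place of GST-Vif; retest series ran down from 100 µM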
MLL AF4-AF9 inh – blocks AF4 peptide binding to human AF9; P42568; AlphaScreen, biotin-AF4 peptide binding to FLAG-AF9; inhibition, % at 10 µM; hit rate 0.47% among 350,000; AID 651704;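 active means every replicate reaching a set inhibition limit, whatever the replicate mean, cut at about 25% in these data; inconclusive means mean inhibition reaches that limit but some replicates miss it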;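 further: 0% = plate neutral control median and 100% = total signal loss; the record names both 10 and 1 µM as test concentration; the first replicate is given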
Target sequence (P42568 whole entry, looked up): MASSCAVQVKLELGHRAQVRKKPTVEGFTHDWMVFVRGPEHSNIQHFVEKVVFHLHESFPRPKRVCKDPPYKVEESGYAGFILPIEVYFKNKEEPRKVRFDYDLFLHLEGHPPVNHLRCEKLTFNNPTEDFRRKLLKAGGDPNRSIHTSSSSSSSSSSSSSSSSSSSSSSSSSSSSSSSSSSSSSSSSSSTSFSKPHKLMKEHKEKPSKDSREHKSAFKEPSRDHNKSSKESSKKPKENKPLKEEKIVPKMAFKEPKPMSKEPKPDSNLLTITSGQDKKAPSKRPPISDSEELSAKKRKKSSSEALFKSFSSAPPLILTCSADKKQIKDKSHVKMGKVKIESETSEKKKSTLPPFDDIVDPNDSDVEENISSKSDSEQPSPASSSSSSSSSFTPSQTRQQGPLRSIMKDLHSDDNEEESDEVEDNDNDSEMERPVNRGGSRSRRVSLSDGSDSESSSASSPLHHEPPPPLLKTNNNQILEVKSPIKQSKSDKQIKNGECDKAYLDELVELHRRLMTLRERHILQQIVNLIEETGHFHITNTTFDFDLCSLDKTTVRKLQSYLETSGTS
RanGTP-Imp inh – inhibitors of RanGTP-importin-beta interaction, primary screen, biochemical, FRET, CFP-Ran, YFP-importin-beta, homogeneous; cell-free CFP-Ran/YFP-importin-beta FRET ratio; inhibition, % (concentration not given with the values); hit rate 1.1% among 300,000; AID 2216;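 active means most replicates above 15%; inconclusive means exactly half above 15%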;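 further: 0% = DMSO wells and 100% = Ran loaded with GDP instead of GTP; wells of about 40 µL received 100 nL stock; the first replicate is given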
A1 inh – inhibitors of the anti-apoptotic protein A1, read as caspase activation; caspase activation, % (concentration not given with the values); hit rate 0.066% among 330,000; AID 2462; MEF A1-2A-BIM cells, Caspase-Glo 3/7 luminescence, 3 h; percent of clofoctol response, vehicle zero;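 active means over half of replicate activation scores above 10%, or exactly half above 10 with the replicate mean above 10; inconclusive means replicate mean below 10 yet half the replicates above 10; inactive means over half of replicates below 10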;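 further: wells of about 30 µL received 50 nL stock; many hits fall short of the cut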
T cruzi inh – T. cruzi replication inhibition; hit rate 1.4% among 300,000; inhibition, % (concentration not given with the values); T. cruzi beta-gal in NIH3T3, luminescence, 90 h; AID 1885;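 active means mean inhibition across valid replicates above about 55%, limit read from the data; inconclusive means mean below that limit but half or more replicates reach it; inactive means mean below it, under half of replicates reach it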;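 further: signal also drops with host cell toxicity which is not excluded here; 0% = plate median of DMSO wells and 100% = zero luminescence signal; higher percent means less beta-gal luminescence so fewer parasites; stock transfer was 50 nL into about 50 µL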
Ecoli rRNA inh OD600 – second read-out of Ecoli rRNA inh, no call of its own (marks repeat the call); OD600 change, %; measured here: OD600 growth;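 optical density of the mix in the first replicate; 0 = DMSO median and -100 = no signal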
Ecoli rRNA inh RFP – further read-out of Ecoli rRNA inh, marked with its call; RFP signal change, %; measured here: RFP humanized mutant strains;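 first replicate; 0 = DMSO median and -100 = no signal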
* hit, by the source's call; ? = inconclusive; . = no result given.

Order of values – Ecoli rRNA inh	Ecoli rRNA inh OD600	Ecoli rRNA inh RFP	Beta cell apopt	Calb FLC	Vif A3G	MLL AF4-AF9 inh	RanGTP-Imp inh	A1 inh	T cruzi inh
> O=S(=O)(NCCc1ccccc1)c1ccc(S(=O)(=O)N2CCCCC2)cc1
 : 5	2	-2.3	4	27	?	6.4	-0.5	0.3	-4
> CN1CCN(C(=O)/C(=C/c2cccnc2)NC(=O)c2cccc(Br)c2)CC1
 : 9	6	-2.3	0	-4	.	0.8	2.3	0.9	-7
> O=C(Nc1ccc(N2CCN(C(=O)c3ccco3)CC2)cc1)c1cccnc1Cl
 : 6	6	1.4	3	?	.	-2.4	-2.9	0.3	-2
> COc1ccccc1NC(=O)C(Cc1ccc(Cl)cc1)c1nn[nH]n1 (stereo not given)
 : .	.	.	.	16	9%	.	0.7	1.0	-9
> Cc1[nH]c(=O)[nH]c(=O)c1S(=O)(=O)N1CCN(c2ccccc2)CC1
 : 1	-2	1.6	-4	21	.	0.4	0.0	0.5	-11
> c1ccc(SCCN2CCN(c3ccccc3)CC2)cc1
 : -24	-21	-3.2	-1	-4	-1%	-0.1	1.0	0.5	-14
> O=C(Nc1cccc2ccccc12)c1ccc([N+](=O)[O-])o1
 : -19*	1.9*	1.3*	-11	86*	.	5.6	-4.1	-0.3	3
> CCO[C@@H]1OC(C(=O)O)=C[C@H](c2ccc3c(c2)OCO3)[C@H]1CCCO
 : 15	10	-2.9	-8	8	15%	-3.8	-1.8	-0.4	-17
> CCCCNC(=O)CSc1nc2cc(OC)c(OC)cc2c(=O)n1Cc1ccc(OC)cc1
 : .	.	.	-9	3	1%	.	5.9	0.5	2
> Cc1cc(C)c(C#N)c(Nc2cccc(C)c2C)n1
 : 9	7	-0.8	-7	2	.	-0.6	-3.8	0.0	-2
> Cc1nc2ccccn2c1C(=O)N/N=C/c1ccc([N+](=O)[O-])cc1
 : .	.	.	-5	29	-9%	.	2.7	0.3	-15
> CCC(C(=O)Nc1ccccc1F)n1nc(C)c2c(C)n(-c3ccccc3)nc2c1=O (stereo not given)
 : -17	-14	1.4	0	-7	.	1.7	1.6	0.4	12
> O=C(Cn1c(NCCO)nc2ccccc21)c1cccs1
 : .	.	.	3	-6	?	.	2.4	0.7	-5
> COc1ccc(-c2oc(NC(=O)c3ccc(C)cc3)c(C#N)c2-c2ccc(OC)cc2)cc1
 : .	.	.	0	1	-3%	.	2.1	-0.9	44
> O=C(Nc1ccc2c(c1)OCCO2)c1ccc(Cl)c(Cl)c1
 : 5	4	0.7	1	-32	-11%	-0.7	1.8	-5.7	11
> O=C(CSc1nc(C2CC2)nc2sc3c(c12)CCCC3)NCc1ccco1
 : .	.	.	-1	9	21%	.	-3.1	-0.9	-31
> Clc1ccc(-c2nc(Cc3ccccc3)no2)cc1
 : 13	10	1.8	3	-13	5%	.	6.7	-2.4	5
> O=C(NC(=S)Nc1ccc(N2CCOCC2)cc1)c1cccc(Cl)c1
 : -10	4	20	-3	6	25%	0.5	3.8	-1.9	-23
> Cc1nnc(SCC(=O)Nc2ccc(Oc3ccccc3)cc2)n1N
 : .	.	.	-9	0	1%	.	9.2	-0.8	-7
> Cc1noc(C)c1S(=O)(=O)Nc1ccccc1Oc1ccccc1
 : -22*	-17*	2.4*	-3	18	23%	1.4	-0.1	-0.3	9
> O=C(Cn1c2c(sc1=O)C1c3ccccc3OCC1CS2)Nc1ccc(Cl)cc1 (stereo not given)
 : .	.	.	5	0	-4%	.	1.5	-0.4	33
> CN1CCN(CC(=O)n2c3c(c4ccccc42)CCCC3)CC1
 : .	.	.	-2	1	11%	.	1.9	-0.2	22
> O=C(Nc1ccccc1C(F)(F)F)c1cc(-c2ccccc2O)on1
 : .	.	.	3	10	21%	.	5.0	-1.3	-7
> CC(C)(O)C#Cc1ccc(CN2CCC(CO)(CCc3ccccc3)CC2)cc1
 : 5	-3	-1.9	-3	-3	.	-0.3	-1.2	0.6	17
> COc1ccc(NC(=O)CCS(=O)(=O)c2ccc3c(c2)oc(=O)n3C)cc1
 : 7	8	1.0	0	0	.	-1.0	-1.5	0.8	1
> Cc1ccccc1C(=O)OCCCN=C1NS(=O)(=O)c2ccccc21
 : .	.	.	2	1	?	.	5.0	-1.5	-3
> O=C(Nc1ccc(N2CCN(C(=O)c3ccccc3F)CC2)cc1)c1ncn[nH]1
 : 8	8	3.3	-15	-63	?	-1.0	5.0	0.0	-71
> COC(=O)c1c(O)cc(=O)n2c1CCCCC2
 : 13	15	1.9	-4	27	7%	-1.6	-1.1	-0.4	-28
> O=C(Cc1ccc(Cl)cc1Cl)Nc1cccc(S(=O)(=O)Nc2ccccc2F)c1
 : -4	3	13	-6	1	-7%	-4.2	3.6	-0.1	-19
> COc1ccc(OC)c(C(C)NC=O)c1 (stereo not given)
 : 10	-1	0.6	-2	-2	-2%	-0.2	0.9	0.8	-1

Exported with each value named: entries from further up.
COc1ccc(NC(=O)CCS(=O)(=O)c2ccc3c(c2)oc(=O)n3C)cc1
- Ecoli rRNA inh = 7
- Ecoli rRNA inh OD600 = 8
- Ecoli rRNA inh RFP = 1.0
- Beta cell apopt = 0
- Calb FLC = 0
- Vif A3G = .
- MLL AF4-AF9 inh = -1.0
- RanGTP-Imp inh = -1.5
- A1 inh = 0.8
- T cruzi inh = 1

Cc1ccccc1C(=O)OCCCN=C1NS(=O)(=O)c2ccccc21
- Ecoli rRNA inh = .
- Ecoli rRNA inh OD600 = .
- Ecoli rRNA inh RFP = .
- Beta cell apopt = 2
- Calb FLC = 1
- Vif A3G = ?
- MLL AF4-AF9 inh = .
- RanGTP-Imp inh = 5.0
- A1 inh = -1.5
- T cruzi inh = -3

The results go on.
Order of values – Ecoli rRNA inh	Ecoli rRNA inh OD600	Ecoli rRNA inh RFP	Beta cell apopt	Calb FLC	Vif A3G	MLL AF4-AF9 inh	RanGTP-Imp inh	A1 inh	T cruzi inh
> O=C(CCCn1c(=S)[nH]c2ccsc2c1=O)Nc1ccc2c(c1)OCO2
 : -9	-6	-2.2	-3	-4	13%	-2.0	5.7	-0.7	2
> Cc1sc(Nc2ccc([N+](=O)[O-])cc2)nc1-c1c(C)n(C)n(-c2ccccc2)c1=O
 : .	.	.	.	4	3%	.	-4.0	0.6	5
> CC1=C(C(=O)Nc2ccccc2)C(c2ccncc2)C(C#N)=C(SCC(=O)Nc2ccccc2)N1 (stereo not given)
 : .	.	.	3	4	-4%	.	-3.0	-0.2	12
> COc1ccc(S(=O)(=O)N2CCCC(C(=O)N3CCN(C)CC3)C2)cc1C (stereo not given)
 : .	.	.	-5	-8	-1%	.	1.9	-0.8	18
> Cc1cnn(C(=O)c2ccccc2Br)c1
 : -1	-5	-3.7	-3	-1	26%	1.5	4.1	0.2	-22
> O=C(Nc1ccccc1O)c1cc2cc(Br)ccc2oc1=O
 : 8	11	-0.6	1	4	-3%	0.0	-3.5	-3.5	-16
> CC(=O)Nc1cccc(/C(C)=N/NC(=O)c2c(-c3ccccc3Cl)noc2C)c1
 : .	.	.	14	38	.	.	-2.0	0.1	-29
> Cc1cccc(N(C)C(=O)c2cnn(-c3ccccc3)c2C)c1
 : -4	-2	-0.1	0	-18	.	-1.3	2.4	1.2	-7
> Cc1cccc(NC(NC(=O)c2ccccc2[N+](=O)[O-])C(Cl)(Cl)Cl)c1 (stereo not given)
 : .	.	.	-6	-9	22%	.	-0.6	-0.6	-15
> NS(=O)(=O)c1ccc(CCNC(=O)c2cccc(S(=O)(=O)N3CCCC3)c2)cc1
 : 25	13	2.0	-2	.	.	-0.6	.	-0.6	.
> Cc1c(C(=O)O)oc2c1/C(=N\O)CCC2
 : 14	11	-3.5	-11	2	?	2.5	1.6	1.0	2
> CC(=O)C[C@@H](O)CC(=O)[C@H]1OC(=O)CCCCCCCCc2ccccc21
 : 4	4	-1.9	3	.	.	5.9	.	1.7	.
> O=C(NS(=O)(=O)Nc1ccccn1)c1c[nH]c2ccccc12
 : 0	1	0.7	-7	-6	-5%	1.3	3.6	0.6	2
> Cn1cc(-c2ccccc2C(=O)O)c(=O)c2cc(Cl)ccc21
 : 3	3	3.9	-4	7	.	-3.0	2.6	0.3	-14
> CC(=O)c1ccc(CC2SC(N)=NC2=O)cc1 (stereo not given)
 : 13	3	1.8	.	9	4%	-1.0	2.0	1.6	3
> CCOC(=O)CC1COCCN1C(=O)c1cc(COc2ccc(F)c(F)c2)on1 (stereo not given)
 : -2	-9	-1.2	-6	-6	-3%	-1.2	?	-0.1	1
> Cc1ccc(CN2CCN(Cc3cnc(N4CCOCC4)s3)CC2CCO)cc1 (stereo not given)
 : 14	11	-6.5	1	0	-12%	5.2	0.9	-0.2	10
> COc1cccc(NC(=O)COC(=O)CCSc2ccccc2)c1
 : -4	8	6.0	-2	.	-9%	-6.1	.	0.0	.
> O=C(CCN1CCCCC1c1cccnc1)NCc1ccccc1 (stereo not given)
 : .	.	.	.	-12	3%	.	5.2	0.3	-2
> COc1ccc(CCNC(=O)c2c(O)c3ccccc3n(C)c2=O)cc1
 : 4	5	-1.7	-6	96*	.	-2.6	-4.9	-0.9	1
> Cc1ccccc1NC(=O)Cc1nnc(SCC(=O)NC2=NCCS2)n1C
 : 4	16	-0.9	-10	7	-3%	0.1	-2.0	0.2	-15
> COc1ccc(C2N=C(c3ccccc3)NO2)cc1OC (stereo not given)
 : 1	0	4.1	4	-8	0%	-0.1	3.1	0.0	-4
> Cc1cccc2sc(NNC(=O)c3ccc(S(=O)(=O)N4CCCC(C)C4)cc3)nc12 (stereo not given)
 : -6	-8	-3.5	102*	-1	.	11	0.1	-0.5	34

One compound at a time, as listed above. Order of screens: Ecoli rRNA inh | Ecoli rRNA inh OD600 | Ecoli rRNA inh RFP | Beta cell apopt | Calb FLC | Vif A3G | MLL AF4-AF9 inh | RanGTP-Imp inh | A1 inh | T cruzi inh
Record of Cc1nnc(SCC(=O)Nc2ccc(Oc3ccccc3)cc2)n1N : . | . | . | -9 | 0 | 1% | . | 9.2 | -0.8 | -7
Record of Cc1ccccc1NC(=O)Cc1nnc(SCC(=O)NC2=NCCS2)n1C : 4 | 16 | -0.9 | -10 | 7 | -3% | 0.1 | -2.0 | 0.2 | -15
Record of CC(C)(O)C#Cc1ccc(CN2CCC(CO)(CCc3ccccc3)CC2)cc1 : 5 | -3 | -1.9 | -3 | -3 | . | -0.3 | -1.2 | 0.6 | 17

Screening data as filed in PubChem BioAssay.

Some of the compounds tested; rates above refer to the full screens.
